# Source: PubChem (National Center for Advancing Translational Sciences (NCATS))
# Rango release inh – inhibition of RanGTP-driven Rango-importin beta dissociation; Biochemical FRET Rango-importin beta, RanGTP-induced dissociation; AID 540253; actives 0.071% (n = 340,000); Potency, µM (doses to about 46.1 µM), for the others: at the highest dose activity change, negative = inhibition; active means falling FRET ratio curve, often poorly fitted, with flat reads before Ran was added; inconclusive means other falling curves, or compound fluorescence or quenching; inactive means flat or rising ratio curve;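 note: potency is the fitted concentration of half-maximal effect; % of control where 0% means no effect; nearly all actives have a fitted effect of over 45% in size; -100% = wells without RanGTP and RCC1; the record marks most hits as doubtful in a second field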
#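 Compounds preincubate 5 min with complex of recombinant Rango and importin beta in PBS with 1 mM DTT. Ran (0.6 uM) loaded with 2 mM GTP plus 0.2 uM RCC1 starts dissociation; FRET is recorded 45 min later.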
# Rango-impB inh – prevents formation of the Rango-importin beta complex. Potency, µM (top dose mostly 92.2 µM), inactives show at the top dose inhibition of complex formation. actives 0.031% (n = 340,000). Rango CFP/YFP FRET sensor + importin beta, 45 min. AID 540263. Q14974; active = rising FRET ratio curve, often small or poorly fitted; inconclusive = mostly compound fluorescence or quenching in the first reads; inactive = flat curves in all reads;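 note: potency is the fitted concentration of half-maximal effect; 0% = DMSO wells and 100% = buffer wells lacking importin beta; nearly all actives have a fitted effect of over 15% in size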
# Target sequence (Q14974 whole entry, looked up): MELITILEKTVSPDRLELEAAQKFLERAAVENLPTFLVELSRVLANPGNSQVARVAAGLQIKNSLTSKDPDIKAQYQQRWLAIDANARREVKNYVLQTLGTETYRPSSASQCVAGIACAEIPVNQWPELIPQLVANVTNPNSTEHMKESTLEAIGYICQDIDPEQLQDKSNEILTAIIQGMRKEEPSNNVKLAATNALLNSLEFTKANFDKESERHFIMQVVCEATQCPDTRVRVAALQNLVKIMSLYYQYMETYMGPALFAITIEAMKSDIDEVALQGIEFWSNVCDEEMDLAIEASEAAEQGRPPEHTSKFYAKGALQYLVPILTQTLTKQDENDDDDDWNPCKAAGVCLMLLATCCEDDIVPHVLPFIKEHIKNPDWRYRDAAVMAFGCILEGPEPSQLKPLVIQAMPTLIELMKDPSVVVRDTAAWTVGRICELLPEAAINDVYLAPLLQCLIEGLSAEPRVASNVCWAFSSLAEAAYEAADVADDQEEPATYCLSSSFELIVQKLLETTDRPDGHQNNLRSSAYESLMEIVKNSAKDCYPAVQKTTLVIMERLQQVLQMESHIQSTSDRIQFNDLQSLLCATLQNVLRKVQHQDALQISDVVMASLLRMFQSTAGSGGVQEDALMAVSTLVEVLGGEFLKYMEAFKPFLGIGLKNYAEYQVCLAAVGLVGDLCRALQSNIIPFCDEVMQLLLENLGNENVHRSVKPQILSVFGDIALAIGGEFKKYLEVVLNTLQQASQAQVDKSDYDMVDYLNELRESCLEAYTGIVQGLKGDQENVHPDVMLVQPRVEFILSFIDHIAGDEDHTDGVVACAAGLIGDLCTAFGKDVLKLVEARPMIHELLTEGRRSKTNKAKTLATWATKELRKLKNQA
#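 FRET biosensor Rango (snurportin 1 IBB between N-terminal EYFP and C-terminal Cerulean), 50 nM in PBS/1 mM DTT/0.02% Tween-20/0.1% BSA, preincubated 5 min RT with compound; 0.125 microM importin beta added, 45 min RT, CFP/YFP FRET ratio read.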
# miR-21 FLuc – raises the signal of a miR-21 reporter. HeLa miR-21 FLuc reporter, luciferase, 48 h. 340,000 tested, under 10 active. Potency, µM (top dose mostly 38.3 µM), for inactives: at the highest dose reporter change, positive = more light; active = well fitted rising curve with a large enough effect; inconclusive = small, poorly fitted or top-dose-only effect; inactive = no such curve, though single readings can be large or run the other way;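 note: % of control where 0% means no effect; miR-21 action dims this reporter so a rising signal means less miR-21 action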
#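 Using DMEM plus 10% FBS, HeLa miR-21-FLuc cells are incubated with test compounds (final up to about 40uM) for 48 hours; firefly luciferase signal is then imaged following reagent-mediated lysis.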
# GLA inh pH 4.5 – blocks human alpha-galactosidase A at pH 4.5 | P06280 | purified enzyme, 4-MU-alpha-Gal fluorescence, pH 4.5 | activity change, negative = inhibition, % at 105 µM | 230,000 tested, under 10 active | AID 1467; inconclusive = small, poorly fitted or top-dose-only inhibition, or a rising curve; inactive = flat fitted curve, though single readings scatter; no compound was filed as active;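 note: 0% = full activity with enzyme and -100% = basal without enzyme; dose as in the result columns while the protocol names 77 µM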
# Starred values were filed as active, the others as inactive; ? = inconclusive; · = not tested or not shown; & = joins results of further samples; [ ] = remark or other dose.
Rango release inh	Rango-impB inh	miR-21 FLuc	GLA inh pH 4.5	SMILES
7.2%	1.9%	0.3%	-14.1	COc1ccc(CNC(=O)CCC(=O)Nc2nnc(C(C)C)s2)cc1
11.1%	0.2%	-0.2%	·	O=C(CN1C(=O)/C(=C/c2ccc(F)cc2)SC1=S)N1CCN(CCc2ccccn2)CC1
-11.9%	-0.7%	0.3%	5.6	COc1ccc(NC(=O)C2(c3ccc(NC(=O)c4ccc(OC(C)=O)cc4)cc3)CCCC2)cc1
15.5%	5.1%	-9.6%	·	Cc1ccc2c(C)c(C(=O)NCCN3CCCC(O)C3)oc2c1C (centres undefined)
6.1%	0.8%	0.3%	5.8	Cn1c(=O)oc2cc(S(=O)(=O)N3CCC(C(=O)NCCc4ccccc4)CC3)ccc21
26.4%	1.4%	-17.6%	0.9[21.1 µM]	Cc1ccc2[nH]c3c(=O)n4c(nc3c2c1)SCC4
25.5%	0.1%	3.2%	7.1	O=C(c1ccccc1CCc1ccccc1)N1CCN(c2ccccn2)CC1
-1.9%	4.1%	0.6%	·	CC1CC(C)CN(C(=O)Cn2ncc3c([nH]c4ccccc43)c2=O)C1 (centres undefined)
-10.2%	-1.4%	-2.9%	·	COc1ccc(CN(CC(=O)NC2CCCCC2)C(=O)CCC(=O)Nc2nccs2)cc1
25.6%	-0.4%	-3.7%	1.6	NC(=O)c1ccc(NCCCN2CCOCC2)c([N+](=O)[O-])c1
0.8%	-0.3%	-6.1%	8.0	C#CCSc1nnc(-c2cc3c(C(F)(F)F)nn(C)c3s2)n1C
-1.4%	5.2%	-3.1%	·	Cc1cccc(CN2CCc3c([nH]c4ccccc34)C2)c1
-8.8%	0.0%	8.8%	0.6	CCOc1cc(C(=O)NCc2ccncc2)cc(OCC)c1OCC
?	?	-1.7%	23.2	COCCCn1c(CCC(=O)O)ccc1-c1cccs1
29.0%	-4.9%	-8.3%	4.4	C=C(C)COc1ccc(-c2[nH]ncc2Oc2ccccc2OCC)c(O)c1

# Carrying on:
Rango release inh	Rango-impB inh	miR-21 FLuc	GLA inh pH 4.5	SMILES
1.2%	?	·	·	Cc1c(NC(=O)c2ccc(S(=O)(=O)Nc3ccccc3F)cc2)c(=O)n(-c2ccccc2)n1C
-11.1%	2.5%	0.1%	6.6	CSc1ccc(C(=S)N2CCN(Cc3ccccc3)CC2)cc1
·	·	0.8%	-2.1	CCNC(=S)N/N=C/c1ccc(F)cc1
-8.6%	?	·	·	Cc1ccn2c(=O)nc(SCC(=O)NCc3ccccc3Cl)nc2c1
7.7%	2.6%	3.8%	·	O=C(NC(=S)Nc1cc([N+](=O)[O-])ccc1O)c1ccc2c(c1)OCO2
-0.1%	3.9%	-0.5%	3.2	Cc1ccc(N(CN2CCCC2=O)C(=O)c2ccccc2)cc1
0.3%	-1.7%	-3.3%	5.7	CC1CCCC(NC(=O)CCCn2c(=O)[nH]c3cc(Cl)ccc3c2=O)C1C (centres undefined)
-7.7%	-0.7%	1.4%	·	O=[N+]([O-])c1cccc2nc(-c3ccccc3)c(-c3ccccc3)nc12
-0.5%	0.3%	-10.6%	-0.7	Cc1cc2ncn(S(=O)(=O)c3ccc(S(=O)(=O)N4CCOCC4)cc3)c2cc1C
?	?	·	·	CN1CCCC1CCNc1ccc2sc3ccccc3c(=O)c2c1 (centres undefined)
-8.4%	3.9%	·	·	CCOC(=O)c1c(C)[nH]c(C(=O)COc2ccc3ccc(=O)oc3c2)c1C
-1.9%	0.0%	-3.4%	-0.3	O=C(CNC(=O)c1ccc2c(c1)OCCO2)N/N=C/c1ccc(O)cc1O
-6.9%	-3.1%	-3.2%	6.6	Nc1ccc(-c2nc3cc(N)ccc3n2CCO)cc1
-17.2%	?	-31.1%	·	COc1ccccc1CNc1ccc2c(c1)CCC2
-11.6%	-0.5%	-53.7%	1.1	O=C(Nc1ccc2c(c1)OCO2)OCc1ccccc1

# (more compounds)
Rango release inh	Rango-impB inh	miR-21 FLuc	GLA inh pH 4.5	SMILES
3.9%	-1.2%	1.9%	·	COc1ccc(C(C(=O)NC(C)(C)C)N(C(=O)CCC(=O)Nc2ccccn2)C2CCCCC2)cc1 (centres undefined)
-4.1%	-1.0%	-15.8%	8.8	Cc1ccc(-n2nnnc2CSc2nnc(-c3ccc(O)cc3)o2)cc1
0.1%	-1.1%	-2.3%	10.6	CCc1ccccc1N1C(=O)CC(N2CCc3ccccc32)C1=O (centres undefined)
-5.3%	-2.4%	1.3%	1.2	Cc1ccc(S(=O)(=O)NCc2ccncc2)c(C)c1C
1.7%	0.7%	11.9%	9.8	CCOC(=O)c1ccc(N2CN(CC)CNC2=S)cc1
-15.0%	-4.1%	·	·	COc1ccc(CC(=O)OCC(=O)c2ccc(F)cc2)cc1
-3.6%	0.0%	-13.5%	-7.4	COc1ccc(-n2ccsc2=S)cc1
9.1%	-0.1%	-4.3%	2.0	COc1ccccc1N1CCN(C(=O)c2cc(C)oc2C)CC1
4.4%	-0.2%	-0.5%	7.4	CCOC(=O)CSCC(=O)Nc1ccc(S(=O)(=O)N2CCCCC2)cc1
-16.3%	-3.4%	7.3%	·	COc1ccccc1CNC(=O)c1cc(S(=O)(=O)N2CCCCC2)c[nH]1
-3.7%	-1.0%	-4.6%	-5.6	CC(=O)c1sc(=S)n(-c2ccccc2)c1C
3.5%	-1.7%	-33.1%	-15.3	COCCCNC(=S)Nc1ccc2c(c1)OCCO2
12.9%	-0.4%	·	·	C#CCOCCOCCOCCNc1nc(N2CCN(C(=O)CCCCCCCCCCNC(=O)[C@@H](CCC(=O)O)n3cc(CCCCCN)nn3)CC2)nc(N2CCN(C(=O)CCCCCCCCCCNC(=O)[C@@H](CCC(=O)O)n3cc(CCCCCN)nn3)CC2)n1
-11.8%	0.7%	-4.0%	0.3	Clc1ccccc1Cc1noc(CN2CCN3CCCC3C2)n1 (centres undefined)
-14.7%	0.7%	-6.5%	·	COc1ccc(CCN2CC(C(=O)N(C)CCOc3ccccc3)CCC2=O)cc1 (centres undefined)

# The list continues:
Rango release inh	Rango-impB inh	miR-21 FLuc	GLA inh pH 4.5	SMILES
22.6%	0.8%	-16.2%	-1.8	O=C(CNc1cccc(C(F)(F)F)c1)N/N=C/c1cn(-c2ccccc2)nc1-c1ccccc1
-2.3%	4.1%	-2.4%	-15.9	COC(=O)c1ccc2c(=O)n(CCCN3CCCC3=O)c(=S)[nH]c2c1
1.2%	-0.9%	·	·	CN(C)S(=O)(=O)c1ccc(C(=O)N2CCN(S(=O)(=O)c3ccc4c(c3)OCCO4)CC2)cc1
-10.9%	-4.9%	·	·	CC(OC(=O)CNS(=O)(=O)c1ccc(C#N)cc1)C(=O)Nc1ccc(Cl)cn1 (centres undefined)
-8.6%	-3.8%	-6.8%	-10.2	COCCNC(=O)CSc1nc(-c2ccc(OC)c(OC)c2)cc(C(F)(F)F)n1
-8.0%	2.2%	·	·	COc1ccc(NC(=O)C(C)N=C2NS(=O)(=O)c3ccccc32)cc1S(N)(=O)=O (centres undefined)
-5.1%	4.3%	·	·	CN(CC(=O)Nc1cccc(F)c1)C(=O)CCCN1C(=O)c2cccc3cccc(c23)C1=O
-5.7%	2.0%	-3.0%	-9.0	Cc1ccc(-n2c(P(C)(=O)O)nc3ccccc32)cc1
-12.3%	0.1%	-2.0%	6.8	CC(=O)Nc1ccc(N2CCCCC2)c(C(=O)Nc2cccc(C)c2)c1
-3.8%	5.9%	11.1%	1.9	O=C(Oc1cc(=O)n2ccccc2n1)c1ccccc1
7.1%	0.9%	·	·	Cc1ccc(C)c2sc(N3CCN(C(=O)c4ccc([N+](=O)[O-])o4)CC3)nc12
-3.4%	0.4%	-17.8%	-2.6	COC(=O)N/N=C/c1ccccc1OCc1ccccc1
1.1%	?	-28.4%	-3.1	Cc1cc2c(C)nc(N/N=C/c3ccc(F)cc3)nc2o1
-4.0%	?	0.3%	-0.7	O=c1cc(O)nc(SCc2ccccc2)[nH]1
-10.5%	-2.9%	19.1%	4.8	CCOC(=O)c1csc(NC(=O)c2cc(OC)c(OC)c(OC)c2)n1

# New compounds follow
Rango release inh	Rango-impB inh	miR-21 FLuc	GLA inh pH 4.5	SMILES
14.0%	5.3%	·	·	CCN(CC)c1ccc(C(=C2C=CC(=[N+](CC)CC)C=C2)c2ccc(N(CC)CC)cc2)cc1
8.9%	1.3%	·	·	CC1CCC(NC(=O)CN2CCN(S(=O)(=O)c3cccs3)CC2)CC1 (centres undefined)
8.4%	1.8%	0.6%	·	O=C(c1ccco1)N1CCN(Cc2nnc(-c3ccccc3)o2)CC1
-4.9%	2.5%	-6.8%	·	C=CCn1c(=O)c2c(nc3n2CC(C)CN3Cc2ccccc2)n(C)c1=O (centres undefined)
-13.3%	-1.5%	·	·	COc1cc(C(=O)O)c2c(c1C)OC(=O)c1c(C)cc(O)c(C=O)c1O2
?	?	-9.0%	4.6	CCOc1ccc(C(=O)/C=C/c2ccc(SC)cc2)cc1
3.1%	5.0%	20.9%	-16.1	CCOc1ccc(NS(=O)(=O)c2cc(NC(=O)c3cccc(C)c3)ccc2Cl)cc1
0.3%	-0.1%	4.2%	12.0	O=C(NC1CCCC1)C(c1cccnc1)N(CCc1ccccc1)C(=O)c1ccco1 (centres undefined)
-1.9%	-0.4%	-3.6%	-2.1	Cc1ccc(NC2c3ncccc3C(=O)N2C2CCCCC2)cc1C (centres undefined)
?	-1.6%	·	·	CN(CC(=O)Nc1ccccc1Br)C(=O)CCCSc1nc2ccccc2[nH]1
-2.0%	1.4%	-16.1%	-1.9	Nc1ccc(Oc2ccc([N+](=O)[O-])cc2[N+](=O)[O-])cc1
-19.9%	-0.2%	-7.8%	5.4	CC(C)(C)NC(=O)/C(=C\c1ccco1)NC(=O)c1cccs1
1.9%	0.6%	·	·	CC1CCCCC1NC(=O)COc1cccnc1[N+](=O)[O-] (centres undefined)
0.2%	-1.0%	-1.8%	·	C=CCNC(=S)N1CCC(C(=O)c2ccc(C)cc2)CC1
1.4%	-0.7%	0.7%	-2.8	CC(C)CNC(=O)c1cccc(NC(=O)Cc2ccc(Br)cc2)c1

# Copied from above, three compounds:
Rango release inh	Rango-impB inh	miR-21 FLuc	GLA inh pH 4.5	SMILES
1.9%	0.6%	·	·	CC1CCCCC1NC(=O)COc1cccnc1[N+](=O)[O-] (centres undefined)
0.2%	-1.0%	-1.8%	·	C=CCNC(=S)N1CCC(C(=O)c2ccc(C)cc2)CC1
1.4%	-0.7%	0.7%	-2.8	CC(C)CNC(=O)c1cccc(NC(=O)Cc2ccc(Br)cc2)c1

# The list goes on:
Rango release inh	Rango-impB inh	miR-21 FLuc	GLA inh pH 4.5	SMILES
-6.0%	-0.8%	4.5%	·	CCC(C(=O)NC(C)c1ccccc1)C(=O)NC(C)c1ccccc1 (centres undefined)
11.1%	?	1.7%&2.2%	·	CCOc1ccc(NC(=O)CCS(=O)(=O)c2ccc(Br)cc2)cc1
1.0%	-4.8%	0.1%	-15.2	COc1ccc(N2C(=O)CCC(C(C)=O)=C2C)cc1
-12.6%	0.1%	7.4%	6.1	O=C(O)CCn1cc(/C=N/O)c(-c2cccc([N+](=O)[O-])c2)n1
0.0%	0.6%	0.8%	·	CCN1C(=O)c2ccc(C(=O)Nc3c(C)cc(C)cc3C)cc2C1=O
5.2%	-0.7%	·	·	CC(=NO)C1CCC2C3CCC4=CC(=NO)CCC4(C)C3C(O)CC12C (centres undefined)
-6.8%	1.8%	-33.7%	-10.1	COc1ccccc1N1CCN(c2ncnc3c2oc2ccccc23)CC1
-10.1%	?	-1.0%	-0.2	CC(C)(C)CN1CCNC(=O)C1CC(=O)N1CCOc2ccccc2C1 (centres undefined)
1.0%	?	1.6%	3.6	O=C(Cc1ccccc1)N(c1ccc(F)cc1)C1C=CS(=O)(=O)C1 (centres undefined)
8.3%	-2.8%	5.4%	-2.5	CCCCCC(=O)Nc1nc(C)c(-c2csc(Nc3ccc(Cl)cc3)n2)s1

# Quoted from the listing.
# Entry of `COc1ccc(CN(CC(=O)NC2CCCCC2)C(=O)CCC(=O)Nc2nccs2)cc1` in Rango-impB inh: -1.4%
# Entry of `C=CCNC(=S)N1CCC(C(=O)c2ccc(C)cc2)CC1` in miR-21 FLuc: -1.8%
# Entry of `O=C(c1ccccc1CCc1ccccc1)N1CCN(c2ccccn2)CC1` in Rango-impB inh: 0.1%

# These rows are one share of the data; the hit share may differ from the screen's.
